Screening data (PubChem BioAssay)
GLA inh pH 4.5 = blocks human alpha-galactosidase A at pH 4.5; 230,000 tested, under 10 active; AID 1467; purified enzyme, 4-MU-alpha-Gal fluorescence, pH 4.5; activity change, negative = inhibition, % at 105 µM; inconclusive = small, poorly fitted or top-dose-only inhibition, or a rising curve; inactive = flat fitted curve, though single readings scatter; no compound was filed as active;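 further: 0% = full activity with enzyme and -100% = basal without enzyme; dose as in the result columns while the protocol names 77 µM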
Target sequence (P06280 whole entry, looked up): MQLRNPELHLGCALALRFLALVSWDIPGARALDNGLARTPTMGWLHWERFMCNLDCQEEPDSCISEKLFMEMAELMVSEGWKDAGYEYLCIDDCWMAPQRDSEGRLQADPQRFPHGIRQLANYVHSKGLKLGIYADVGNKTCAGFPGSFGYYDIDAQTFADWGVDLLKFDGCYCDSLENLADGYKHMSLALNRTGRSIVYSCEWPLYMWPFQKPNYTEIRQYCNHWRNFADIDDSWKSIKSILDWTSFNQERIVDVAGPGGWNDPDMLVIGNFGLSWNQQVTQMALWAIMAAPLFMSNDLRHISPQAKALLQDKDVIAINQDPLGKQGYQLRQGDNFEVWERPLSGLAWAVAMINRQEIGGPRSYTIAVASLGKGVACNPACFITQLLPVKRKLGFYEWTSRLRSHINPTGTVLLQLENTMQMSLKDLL
Active calls of the source: *; ? = inconclusive; & = joins results of further samples. The list is partial; count on the stated rates, not on these rows.

SMILES	GLA inh pH 4.5
COc1ccc(CNc2nc(-c3ccc(C(=O)N(C)C)cc3)nc3ccccc23)c(OC)c1	-13
C=CCNC(=O)N1CCc2nc(-c3ccc(OC)cc3C)c3c(c2C1)CO[C@@H](c1ccccc1)C3	-1
O=C(O)CC/C=C\C[C@@H]1CO[C@H](c2ccccc2Cl)O[C@@H]1c1ccccc1O	0
CCCCc1c(O)n(-c2ccccc2)[nH]c1=O	-3
COC(=O)[C@@]1(Cc2ccccc2)[C@H]2c3cc(C(=O)N(C)C)n(Cc4ccc(S(C)(=O)=O)cc4)c3C[C@H]2CN1C(=O)c1ccccc1	-19
CCCn1c(-c2ccc(F)cc2)nc2c(NCCN3CCCCC3)nc(C)nc21	-16
COC(=O)c1ccc(C(/C=C/[C@@H](C)C(=O)NCc2ccc(OC)c(O)c2)NC(=O)OCc2ccccc2)cc1 (stereo not given in full)	-15
CC(=O)Nc1ccc(OC(=O)c2ccccc2O)cc1	0
CCCCC[C@H](O)/C=C/C=C\C/C=C\CCCCCCC(=O)O	0
NC(N)=N[C@@H](CCC(=O)O)C(=O)O	-10
COc1ccc2oc(-c3ccccc3)c(OC)c(=O)c2c1	-1
COc1cc2c(cc1OC)C1(O)C(=O)c3ccc(O)c(C(=O)O)c3OC1CO2 (stereo not given)	6
C=CCN1c2ccccc2[C@]23C[C@@H](C(=O)OC)N(S(=O)(=O)c4c(C)noc4C)C2=NC(C(=O)OC)=C(C(=O)OC)[C@H]13	8
CC(=O)c1ccsc1B(O)O	0
CCCCNc1nc(C)nc2c1nc(-c1ccccc1)n2C1CCN(Cc2ccccc2)C1 (stereo not given)	-8
CC(=O)Oc1ccc2c(c1OC(C)=O)OCC1(O)Cc3c(cc(OC(C)=O)c(OC(C)=O)c3OC(C)=O)C21 (stereo not given)	-8
CC(=O)OC1CC(OC(C)=O)[C@]2(C)C(CC(=O)[C@]3(C)C2CC[C@@]2(C)C(C(=O)O)OC(=O)C4OC423)C1(C)C (stereo not given in full)	2
COC(=O)C1=C(C(=O)OC)[C@@H]2N(Cc3ccccc3)c3ccccc3[C@@]23C[C@@H](C(=O)OC)N(S(=O)(=O)c2c(C)noc2C)C3=N1	8
CCOC(=O)C1=C(C)NC(c2ccccc2)=C(C(=O)OCc2ccc([N+](=O)[O-])cc2)[C@@H]1C#Cc1ccccc1	-2
OCC1O[C@H](Oc2ccc(O)cc2)C(O)C(O)C1O (stereo not given in full)	6
COc1ccc2[nH]cc(CCNc3ncncc3-c3ccc(N(C)C)cc3)c2c1	-25
C[C@H](NC[C@H](O)CP(=O)(O)Cc1ccccc1)c1ccc(Cl)c(Cl)c1	3
O=C1C[C@H](c2ccccc2)Oc2cc(O)cc(O)c21	1
COS(C)(=O)=O	4
CCCC1(C(=O)OC)C=C2C(=C(C)C(=O)C2C)CN1 (stereo not given)	5
CCC1=C2CC[C@H]3C(=O)N(C)C(=O)[C@H]3[C@H]2[C@@]2(C)C(=NCc3ccccc3)OC(=O)N2C1=O	-10
C#CCCCC(=O)Nc1ccccc1	-3
CC1CCC2=C1C[C@H](C(C)(C)O)CC[C@@H]2C (stereo not given in full)	-2
COc1ccc2[nH]cc(CCNc3nc(-c4ccoc4)nc4ccccc34)c2c1	-10
COC(=O)[C@@]1(Cc2ccc(OC)cc2)[C@H]2c3cc(C(=O)N4CCCC4)n(C[C@H](O)CO)c3C[C@H]2CN1C(=O)c1ccccc1	-7
C[C@H]1Cc2c(-c3ccccc3)nc3c(c2CO1)CN(C(=O)c1cccnc1)CC3	1
COC(=O)[C@@H](NC(=O)O[C@@H]1C(=O)c2cc(OC)ccc2O[C@H]1c1ccc(OC)c(Br)c1)C(C)C	-2
CCCCc1nc2c(c3c1C[C@H](C)OC3)CN(S(=O)(=O)c1ccc(Cl)c3nonc13)CC2	9
O=S(=O)(Cc1ccccc1)c1nnnn1-c1ccccc1	-11
CC1(C)S[C@@H]2[C@H](NC(=O)COc3ccccc3)C(=O)N2[C@H]1C(=O)O	7
Cc1ncc([N+](=O)[O-])n1C[C@H](O)CCl	-3
CC(C)(C)NC[C@H](O)c1ccc(O)c(CO)c1	3&0
CC(=O)OCC(=O)[C@@]1(O)CC[C@H]2[C@@H]3CCC4=CC(=O)CC[C@]4(C)[C@@H]3C(=O)C[C@@]21C	-12
CCCCCCCC/C=C/CCCCCCCCOP(=O)([O-])OCC[N+](C)(C)C	0
COc1ccc2c(c1)CCC1[C@@H]2CCC2(C)[C@@H](NCCCCCCN3C(=O)C=CC3=O)CC[C@@H]12 (stereo not given in full)	0
COc1cc2cc3c4c(cc(OC)c(OC)c4c2cc1OC)CCN3C	-15
C=CC[C@H](N)C(=O)O	2
Clc1cccc(Nc2nnc(-c3ccccc3)c3ccccc23)c1	-17
FC(F)(F)c1cc(NC(=S)NC23CC4CC(CC(C4)C2)C3)cc(C(F)(F)F)c1	4
NC(=O)CCCCn1ccc(NC(N)=NCC(F)(F)F)n1	7
C=C[C@@H](C1=CC(=O)C(OC)=C(OC)C1=O)c1ccccc1	-1
CC(C)C[C@@H](CC(=O)N[C@@H](CCCN)CC(=O)N[C@@H]1CCNC[C@H]1C(=O)N[C@H](CC(=O)N[C@@H](CCC(=O)O)CC(=O)O)Cc1c[nH]c2ccccc12)NC(=O)[C@@H]1CCCC[C@H]1N	-8
COC(=O)C1=C(C(=O)OC)[C@@H]2N(C)c3ccc(OC)cc3[C@@]23C[C@@H](C(=O)OC)N(S(=O)(=O)c2ccc(C#N)cc2)C3=N1	8
N[C@@H](Cc1ccccc1)C(=O)O	-2
CC(=O)C1CCC2C3CC=C4CC(O)CC[C@@]4(C)C3CC[C@]12C (stereo not given in full)	1
O=C(O)C(O)[C@@](O)(Cc1ccc(O)cc1)C(=O)O (stereo not given in full)	9
CCCC[C@@H]1C[C@H]1C(NC(=O)c1cccs1)c1ccc(C(F)(F)F)cc1 (stereo not given in full)	-11
COC(=O)[C@@]1(Cc2ccc(F)cc2)[C@H]2c3cc(C(=O)N(C)C)n(Cc4ccc(C(F)(F)F)nc4)c3C[C@H]2CN1C(=O)c1ccccc1	-10
CCCCCS(=O)(=O)CCCCCCCCCCn1c(-c2ccc(O)cc2)c(C)c2cc(O)ccc21	1
CCCCCCCC/C=C\CCCCCCCC(=O)OC[C@H](CO)OC(C)=O	3
C=C1CC[C@H](O)C/C1=C/C=C1\CCC[C@]2(C)[C@H]1CC[C@H]2[C@@H](C)CCCC(C)C	4
C[C@@H]1C[C@H]2[C@@H]3C[C@H](F)C4=CC(=O)C=C[C@@]4(C)[C@]3(F)[C@H](O)C[C@]2(C)[C@@]1(O)C(=O)CO	-10
C[C@@H]1C(=O)O[C@@H]2C[C@]34[C@H]5C[C@@H](C(C)(C)C)[C@@]36[C@@H](OC(=O)[C@@H]6O)O[C@@]4(C(=O)O5)[C@@]12O	4
C[C@@H]1O[C@H](O[C@@H]2[C@@H](Oc3cc(O)c4c(c3)O[C@H](c3ccc(O)cc3)CC4=O)O[C@@H](CO)[C@@H](O)[C@H]2O)[C@@H](O)[C@H](O)[C@@H]1O	5
COC(=O)[C@@]1(Cc2ccc(OC)cc2)[C@H]2c3cc(C(=O)N4CCCC4)n(Cc4ccc(OC(F)(F)F)cc4)c3C[C@H]2CN1C(=O)c1ccccc1	-3

Remaining list, next part
SMILES	GLA inh pH 4.5
CCNCCCNCCCCNCCCNCC	-2
C=CCN1c2ccccc2[C@]23C[C@@H](C(=O)OC)N(S(=O)(=O)c4ccc5c(c4)OCCN5C)C2=NC(C(=O)OC)=C(C(=O)OC)[C@H]13	0
N#CCCCS(=O)(=O)c1nc2ccccc2s1	-4
N#C/C(=C\c1ccc(O)c(O)c1)C(=O)NCCCNC(=O)/C(C#N)=C/c1ccc(O)c(O)c1	-25
CCN(CC)CCOC(=O)[C@@H](c1ccccc1)C1CCCCC1	-6
COC(=O)c1c(C)cc(OC)cc1O	0
COc1ccc(/C=C2\NC(=O)[C@@H]3Cc4ccccc4CN3C2=O)cc1	-10
N#Cc1ccccc1-c1ccc2ncnc(N3CCNCC3)c2c1	7
CC(C)(C)CC(C)(C)c1ccc(OCOCCOCCO)c(Cc2cc(C(C)(C)CC(C)(C)C)cc(Cc3cc(C(C)(C)CC(C)(C)C)ccc3OCOCCOCCO)c2OCOCCOCCO)c1	-2
C[C@H]1Cc2c(COc3ccccc3)nc3c(c2CO1)CN(S(=O)(=O)c1ccc(C#N)cc1)CC3	8
CN(C)c1ccc(-c2cc(NCc3cccnc3)ncn2)cc1	?
CCCCCCCCCCCCC/C=C/[C@@H](O)[C@H](CO)NC(=O)CCCCCCCCCCCCCCC	4
CNCC[C@H](Oc1ccccc1OC)c1ccccc1	-1&-3
OCc1cc([C@@H](O)CNCCCCCCOCCCCc2ccccc2)ccc1O	-20
CC#CCN1c2ccccc2[C@]23C[C@@H](C(=O)OC)N(S(=O)(=O)c4ccc([N+](=O)[O-])cc4)C2=NC(C(=O)OC)=C(C(=O)OC)[C@H]13	4
CCOC(=O)CC(C(=O)OCC)C1CCCCC1=O (stereo not given)	-3
COC(=O)[C@@H]1C[C@@]2(O)[C@H](O)[C@H](O)[C@H](O)C[C@H]2N1Cc1c(F)cccc1Cl	2
CC12CC[C@@H]3c4ccc(OS(=O)(=O)O)cc4CC[C@H]3C1CCC2=O (stereo not given in full)	-4
CC/C=C\C/C=C\C/C=C\CCCCCCCCCCCC(=O)O	-2
CCc1c2c(nc3ccccc13)OC(C)C2 (stereo not given)	-3
OCC(O)C(O)[C@H](O[C@H]1OC(CO)C(O)C(O)C1O)[C@H](O)CO (stereo not given in full)	-1
CC(=O)N1CC[C@H]2CC(=O)CC[C@@]21C	-8
CC[C@]1(O)C[C@@H]2CN(CCc3c([nH]c4ccccc34)[C@](C(=O)OC)(c3cc4c(cc3OC)N(C=O)[C@H]3[C@@](O)(C(=O)OC)[C@H](C(=O)OC)[C@@]5(CC)C=CCN6CC[C@]43[C@H]65)C2)C1	-5
CC(=O)O[C@@H](C)C[N+](C)(C)C	3
N#C/C(=C\c1ccc(O)c(O)c1)C(=O)OCCc1cccs1	-20
COC1[C@H](OC(N)=O)C(O)[C@H](Oc2ccc3c(O)c(NC(=O)c4ccc(O)c(CC=C(C)C)c4)c(=O)oc3c2C)OC1(C)C (stereo not given in full)	7
CCCCCCCCCCC/C=C\C(C)(C)/C=C\CCCC(=O)O	-17&-2
CC[C@@H]1OC(=O)[C@@H](C)[C@H](O[C@H]2C[C@@](C)(OC)[C@@H](O)[C@H](C)O2)C(C)[C@H](O[C@H]2O[C@@H](C)C[C@@H](N(C)C)[C@@H]2O)[C@@](C)(O)C[C@H](C)C(=O)[C@@H](C)[C@H](O)[C@@]1(C)O (stereo not given in full)	1
CC(=O)C1=C(O)C=C2Oc3c(C(C)=O)c(O)c(C)c(O)c3C2(C)C1=O (stereo not given)	-4
CN[C@H]1[C@H](O)[C@@H](O[C@@H]2[C@H](O)[C@@H](O[C@H]3OC(CN)=CC[C@H]3N)[C@@H](N)C[C@H]2N)OC[C@@]1(C)O	7
CC[C@H]1C(c2cccc(C)c2)=NN(c2ccccc2)[C@@H]1CO	16
NC(N)=Nc1ccc(Cl)cc1	-2
NS(=O)(=O)c1cc2c(cc1Cl)N[C@@H](C(Cl)Cl)NS2(=O)=O	6
CC1(C)SC2C(NC(=O)C(N)c3ccccc3)C(=O)N2C1C(=O)O (stereo not given)	3
C[C@]1(OC(=O)/C=C\c2ccccc2)C[C@@H](O)[C@@]2(O)C=CO[C@@H](O[C@H]3O[C@@H](CO)[C@@H](O)[C@@H](O)[C@@H]3O)[C@H]21	-18
COC(=O)[C@H]1[C@@H]2C[C@H]3c4[nH]c5ccccc5c4CCN3C[C@@H]2CC[C@@H]1O	-2
Cc1ccc2oc(-c3ccccc3)cc(=O)c2c1	1
CC(=O)OCC1=C(C(=O)O)N2C(=O)[C@@H](NC(=O)Cc3cccs3)[C@@H]2SC1	-2
O=C1C2CCC(C2)[C@@H]2CCCCN12 (stereo not given in full)	-8
CCCCCCCCCCC(C)(C)C(=O)Nc1c(OC)cc(OC)cc1OC	-13
CCCCc1nc2c(c3c1C[C@H](C)OC3)CN(C(=O)Nc1ccc(OC)cc1)CC2	0
CCCCC/C=C\C/C=C\CC1OC1C/C=C\CCCC(=O)O (stereo not given)	4
COc1cc(C2=N/C(=C\c3ccccc3)C(=O)O2)cc(OC)c1OC	-1
Cc1cc2nc3c(=O)[nH]c(=O)nc-3n(CC(O)C(O)C(O)CO)c2cc1C (stereo not given)	-17&-10&-10&-1

Gathered by group: the compounds so far containing a COOH group
SMILES	GLA inh pH 4.5
O=C(O)CC/C=C\C[C@@H]1CO[C@H](c2ccccc2Cl)O[C@@H]1c1ccccc1O	0
CCCCC[C@H](O)/C=C/C=C\C/C=C\CCCCCCC(=O)O	0
NC(N)=N[C@@H](CCC(=O)O)C(=O)O	-10
COc1cc2c(cc1OC)C1(O)C(=O)c3ccc(O)c(C(=O)O)c3OC1CO2 (stereo not given)	6
CC(=O)OC1CC(OC(C)=O)[C@]2(C)C(CC(=O)[C@]3(C)C2CC[C@@]2(C)C(C(=O)O)OC(=O)C4OC423)C1(C)C (stereo not given in full)	2
CC1(C)S[C@@H]2[C@H](NC(=O)COc3ccccc3)C(=O)N2[C@H]1C(=O)O	7
C=CC[C@H](N)C(=O)O	2
CC(C)C[C@@H](CC(=O)N[C@@H](CCCN)CC(=O)N[C@@H]1CCNC[C@H]1C(=O)N[C@H](CC(=O)N[C@@H](CCC(=O)O)CC(=O)O)Cc1c[nH]c2ccccc12)NC(=O)[C@@H]1CCCC[C@H]1N	-8
N[C@@H](Cc1ccccc1)C(=O)O	-2
O=C(O)C(O)[C@@](O)(Cc1ccc(O)cc1)C(=O)O (stereo not given in full)	9
CC/C=C\C/C=C\C/C=C\CCCCCCCCCCCC(=O)O	-2
CCCCCCCCCCC/C=C\C(C)(C)/C=C\CCCC(=O)O	-17&-2
CC1(C)SC2C(NC(=O)C(N)c3ccccc3)C(=O)N2C1C(=O)O (stereo not given)	3
CC(=O)OCC1=C(C(=O)O)N2C(=O)[C@@H](NC(=O)Cc3cccs3)[C@@H]2SC1	-2
CCCCC/C=C\C/C=C\CC1OC1C/C=C\CCCC(=O)O (stereo not given)	4
